KCNQ2 enhance = KCNQ2 (rat) channel potentiation; O88943; CHO-K1 KCNQ2, FluxOR thallium flux fluorescence; hits give high values; B-score at 10 µM; 310,000 compounds, 0.54% hits; AID 2239;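 active = fluorescence ratio B-score at least 3 SD of library B-scores, with initial fluorescence B-score within 3 SD, cut at about 5.3 in these data; same plate scores as AID 2156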;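 also: B-score of peak minus minimum over baseline fluorescence ratio after K+ and Tl+ stimulus; positive B-score means potentiation of KCNQ2 with more thallium influx and brighter signal; only the inactives scoring about 0 or higher are listed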
Target sequence (O88943 whole entry, looked up): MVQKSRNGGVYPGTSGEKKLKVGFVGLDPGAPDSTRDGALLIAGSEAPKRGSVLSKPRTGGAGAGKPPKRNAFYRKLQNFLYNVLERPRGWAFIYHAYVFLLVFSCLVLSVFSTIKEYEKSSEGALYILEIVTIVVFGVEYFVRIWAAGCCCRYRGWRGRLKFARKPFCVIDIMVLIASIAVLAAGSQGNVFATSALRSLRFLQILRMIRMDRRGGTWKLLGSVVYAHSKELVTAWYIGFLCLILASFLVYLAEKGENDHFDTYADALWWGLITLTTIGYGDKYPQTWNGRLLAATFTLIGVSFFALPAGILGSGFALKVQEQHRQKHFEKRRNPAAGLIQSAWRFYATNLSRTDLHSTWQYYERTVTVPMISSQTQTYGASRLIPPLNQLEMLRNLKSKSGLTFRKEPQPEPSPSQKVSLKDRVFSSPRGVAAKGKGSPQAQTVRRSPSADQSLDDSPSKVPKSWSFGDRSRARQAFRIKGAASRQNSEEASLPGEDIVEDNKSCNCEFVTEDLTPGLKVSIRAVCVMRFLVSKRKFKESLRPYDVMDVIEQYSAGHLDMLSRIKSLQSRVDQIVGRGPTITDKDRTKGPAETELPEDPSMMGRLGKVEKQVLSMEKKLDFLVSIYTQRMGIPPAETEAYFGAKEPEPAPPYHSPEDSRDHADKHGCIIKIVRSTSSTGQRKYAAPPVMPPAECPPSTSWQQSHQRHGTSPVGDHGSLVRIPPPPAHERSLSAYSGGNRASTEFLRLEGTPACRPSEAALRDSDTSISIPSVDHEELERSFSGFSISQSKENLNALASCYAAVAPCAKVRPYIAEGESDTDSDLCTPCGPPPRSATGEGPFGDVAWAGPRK
KCNQ2 enhance baseline = further read-out of KCNQ2 enhance, marked with its call; B-score; compound at 10 µM; measured here: initial fluorescence intensity artifact check;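 brightness before thallium and not channel activity; 0 = typical well and far values either way flag optical interference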
* marks the source's active call; other numbers are inactive results. An excerpt, so the mix of outcomes need not match the whole.

Each structure is followed by: KCNQ2 enhance baseline, KCNQ2 enhance
(1) Cc1cc(OCc2cc(C(=O)NCc3cc(C(C)C)no3)no2)cc(C)c1Cl
  -0.21, 0.76
(2) Cc1c(NC(=O)C(CC(=O)O)NCc2ccco2)c(=O)n(-c2ccccc2)n1C (centres undefined)
  0.87, 1.07
(3) Cc1ccc(C)c(NS(=O)(=O)c2ccc(-c3ccc(=O)[nH]n3)o2)c1
  -0.81, 0.67
(4) Cc1nc2c(c(C)nn2-c2ccccc2)c(C)c1C
  -0.01, 0.11
(5) CCn1c(-c2ccc(Cl)cc2)n[nH]c1=S
  -0.02, 1.44
(6) COc1ccc(CNS(=O)(=O)CCNC(=O)c2cccc(OC)c2)cc1
  -1.01, 0.85
(7) Cc1cc(C(=O)Nc2cccnc2)cs1
  2.77, 0.32
(8) COC(=O)c1ccccc1S(=O)(=O)N(Cc1ccco1)Cc1cc2cc(OC)ccc2[nH]c1=O
  0.55, 1.29
(9) C=CCNC(=S)Nc1ccc(Cl)cc1F
  -1.17, 0.66
(10) CC1CCCC(NC(=O)c2ccc3c(=O)n(CC4CCCO4)c(=O)[nH]c3c2)C1C (centres undefined)
  0.39, 0.58
(11) NS(=O)(=O)c1ccc(CNC(=O)c2ccc3ccccc3n2)cc1
  1.2, 2.28
(12) O=C1CC(C(=O)Nc2ccccc2)S/C(=N\N=C\c2ccco2)N1 (centres undefined)
  1.79, 2.04
(13) Cc1ccccc1-n1ncc2c1CC(C)(C)CC2NC(=O)CCCN1CCCC1=O (centres undefined)
  -1.7, 0.22
(14) Cc1cccc(NC(=O)CSCc2cc(=O)n3c(C)csc3n2)c1C
  1.13, 0.12
(15) NC(=O)[C@H]1CC2(CC(c3cccc(NC(=O)COc4ccc(Cl)cc4)c3)=NO2)CN1C(=O)CC(c1ccccc1)c1ccccc1 (some centres undefined)
  1.44, 0.08
(16) CC(C)(C)C1CCc2[nH]c3ccccc3c(=O)c2C1 (centres undefined)
  -0.55, 0.55
(17) N#CCCN1CCNCC1
  0.03, 0.13
(18) CCOC(=O)c1nnn(-c2nonc2N)c1CN1CCc2ccccc2C1
  -1.03, 0.05
(19) O=C(Nc1ccc(F)c(F)c1)c1oc2ccccc2c1NC(=O)C1CCCO1 (centres undefined)
  -1.43, 0.71
(20) Cc1c(Cl)cccc1NC(=O)Nc1cccnc1
  0.02, 1.67

Entries 16–20, quoted:
Each structure is followed by: KCNQ2 enhance baseline, KCNQ2 enhance
(16) CC(C)(C)C1CCc2[nH]c3ccccc3c(=O)c2C1 (centres undefined)
  -0.55, 0.55
(17) N#CCCN1CCNCC1
  0.03, 0.13
(18) CCOC(=O)c1nnn(-c2nonc2N)c1CN1CCc2ccccc2C1
  -1.03, 0.05
(19) O=C(Nc1ccc(F)c(F)c1)c1oc2ccccc2c1NC(=O)C1CCCO1 (centres undefined)
  -1.43, 0.71
(20) Cc1c(Cl)cccc1NC(=O)Nc1cccnc1
  0.02, 1.67

More entries follow.
Each structure is followed by: KCNQ2 enhance baseline, KCNQ2 enhance
(21) CC(C)C(=O)NCC(c1cccs1)S(=O)(=O)c1ccc(F)cc1 (centres undefined)
  1.11, 0.95
(22) NC(=O)c1ccc(NC(=O)COc2cccc3c2CCNC3=O)cc1
  0.04, 0.96
(23) CCOC(=O)C(Oc1ccc(=O)n(-c2ccccc2)n1)C(C)=O (centres undefined)
  1.38, 0.37
(24) O=c1c2ccccc2oc2nc3n(c(=O)c12)CCCS3
  -1.47, 0.53
(25) Cc1c(C(=O)O)oc2ccc3c(c12)C(O)CC(C)(C)O3 (centres undefined)
  0.99, 0.51
(26) CCOc1ccc(OCCCC(=O)NC2=NCCS2)cc1
  -1.02, 1.69
(27) Cc1nc(-c2ccc(-n3nncc3-c3ccco3)cc2)cs1
  -1.47, 0.42
(28) COC(=O)C1=C(C)NC(=O)CC1c1cccc(OC)c1OC (centres undefined)
  1.16, 0.04
(29) CC(C)C(=O)NNc1ccccc1
  0.8, 0.94
(30) CCSc1ncnc2c(C#N)c3n(c12)CCCCC3
  0.94, 1.69
(31) COc1ccc(CNC(=O)Cn2nc(C(F)(F)F)c3c2CCC3)cc1
  1.03, 0.5
(32) Cc1ccc(C(=O)Cn2nnc3ccccc32)cc1
  -0.21, 0.01
(33) CN(CC(=O)NCc1cccs1)S(=O)(=O)c1cccc2nsnc12
  0.09, 1.6
(34) O=C(CN1CCN(c2ncccn2)CC1)N1CCCC1
  -0.3, 0.5
(35) CCNC(=S)N(Cc1ccc2c(c1)OCO2)C1CC(=O)N(c2ccc(F)cc2)C1=O (centres undefined)
  -0.87, 0.94
(36) O=C(CCN1C(=O)c2ccccc2S1(=O)=O)Nc1ccc(F)c([N+](=O)[O-])c1
  -0.89, 0.02
(37) COc1cc(NS(=O)(=O)c2ccc(NC(=O)CCC(=O)O)cc2)nc(OC)n1
  1.53, 1.14
(38) CC1(C)Cc2ccccc2C(NNC(=O)c2ccncc2)=N1
  -1.61, 1.33
(39) CCN(CC)CCNC(=O)c1ccccn1
  0.03, 0.11
(40) COCC(=O)Nc1cc(C(=O)Nc2cccc(C)c2C)ccc1Cl
  0.02, 0.92

Four compounds from above, ordered by the value under KCNQ2 enhance, highest first:
Each structure is followed by: KCNQ2 enhance baseline, KCNQ2 enhance
(11) NS(=O)(=O)c1ccc(CNC(=O)c2ccc3ccccc3n2)cc1
  1.2, 2.28
(26) CCOc1ccc(OCCCC(=O)NC2=NCCS2)cc1
  -1.02, 1.69
(33) CN(CC(=O)NCc1cccs1)S(=O)(=O)c1cccc2nsnc12
  0.09, 1.6
(27) Cc1nc(-c2ccc(-n3nncc3-c3ccco3)cc2)cs1
  -1.47, 0.42

Other structures follow:
Each structure is followed by: KCNQ2 enhance baseline, KCNQ2 enhance
(41) CCOc1ccc(-c2nc(C#N)c(N3CCOCC3)o2)cc1
  -0.19, 1.41
(42) Cc1c(N(C)S(=O)(=O)c2cc(C(=O)NCC3CCCO3)ccc2Cl)c(=O)n(-c2ccccc2)n1C (centres undefined)
  0.01, 0.01
(43) CCN(CC)Cc1c(O)ccc2c(C)c(CC(=O)OC)c(=O)oc12
  0.81, 0.1
(44) COc1ccc(/C=N/NC(=O)CCc2nc3ccccc3[nH]2)cc1
  1.04, 0.01
(45) COc1ccc2nc(NC(=O)c3cccnc3SC)sc2c1
  1.86, 0.18
(46) COc1ccc(Cl)cc1S(=O)(=O)N1CCN(Cc2ccc3c(c2)OCO3)CC1
  -0.83, 0.03
(47) COc1ccc(C(=O)NCC(=O)NCCc2c[nH]c3ccccc23)cc1OC
  -0.62, 0.93
(48) O=C(CCSCc1cccc(F)c1)NCCc1ccccc1
  -0.06, 0.13
(49) C=C1CSc2nc(=O)c3c4c(sc3n21)CCC4
  -0.22, 1.55
(50) CCOc1ccccc1CN1CCN(C2CCC2)CC1CCO (centres undefined)
  -1.26, 0.46
(51) COc1ccc(Nc2cc(C)nc3c(C)cccc23)cc1OC
  -2.17, 0.88
(52) O=c1nc(-c2ccccc2)nc(-c2ccccc2)[nH]1
  -2.16, 0.12
(53) Cn1c(SCc2nnc3n2CCCCC3)nc2ccccc21
  0.55, 0.11
(54) COc1cccc(NC(=O)C/C(C)=N/NC(=O)C2CCCCC2)c1
  -2, 0.03
(55) O=C(Nc1ccc2oc(-c3ccncc3)nc2c1)c1ccc2c(c1)OCCO2
  -1.05, 0.38
(56) Cc1ccc(OCC(=O)Nc2ccccc2[N+](=O)[O-])c(Br)c1
  0.1, 0.87
(57) CCN(Cc1ccccc1)C(=O)Cn1c(C(C)O)nc2ccccc21 (centres undefined)
  -0.44, 0.99
(58) Cc1nn(CCc2nn[nH]n2)c2nc(-c3ccccc3)cc(C(F)(F)F)c12
  0.29, 1.2
(59) CN(/N=C/c1ccc(Br)o1)C1=NS(=O)(=O)c2ccccc21
  1.58, 0.49
(60) O=C(Nc1ccc(C(=O)N2CCOCC2)cc1)Nc1cccc2ccccc12
  -0.9, 0.31

Each structure is followed by: KCNQ2 enhance baseline, KCNQ2 enhance
(61) COc1cc(CCC(=O)NCCc2ccc(F)cc2)cc(OC)c1OC
  0.01, 2.02
(62) CCOc1ccc(/C=C2/SC(=S)N(CCC(=O)Nc3ccc(C(=O)O)cc3)C2=O)cc1
  1.29, 0.52
(63) CCCc1cc(=O)[nH]c(SCc2ccc(F)cc2)n1
  -0.17, 1.12
(64) COc1ccc(C(=O)N2CC3(C)CC2CC(C)(C)C3)cc1OC (centres undefined)
  0.03, 0.67
(65) O=C(CCCCCN1C(=O)c2ccccc2C1=O)Nc1ccc(C(=O)O)cc1
  1.65, 0.08
(66) COc1ccc(C)cc1NC(=O)CSc1nnnn1C1CCCC1
  -0.15, 1.84
(67) CN(C)S(=O)(=O)c1cccc(COC(=O)c2cnccn2)c1
  0.53, 0.89
(68) CCC(=O)Nc1ccc(C(=O)N/N=C/c2ccccc2[N+](=O)[O-])cc1
  0.67, 0.35
(69) COc1ccc(S(=O)(=O)N2CCCCC2)cc1-n1cnnn1
  0.65, 0.58
(70) O=C(CCS(=O)(=O)c1cc2c(cc1Cl)NC(=O)CO2)NCc1ccc(F)cc1
  1.05, 0.39
(71) CC1C(=O)C(C)C(c2ccc(O)cc2)NC1c1ccc(O)cc1 (centres undefined)
  -1.69, 0.84
(72) CN(C)CCCN(C(=O)COc1ccc(Cl)cc1)c1nc2c(F)cccc2s1
  0.8, 0.12
(73) COc1ccc(NC(=O)COc2ccc(N(C)S(=O)(=O)c3ccc(C)cc3)cc2)cc1
  -0.06, 0.4
(74) COc1ccc(C(CC(=O)NCC(OC)OC)NS(=O)(=O)c2ccc(Cl)cc2)cc1 (centres undefined)
  -0.29, 1.04
(75) COc1ccccc1NC(=O)COC(=O)C1CC2C=CC1C2 (centres undefined)
  0.21, 0.66
(76) CCN(Cc1ccccc1)C(=O)c1ccc(CS(=O)c2ccccc2C)o1 (centres undefined)
  0.66, 0.11
(77) CCOC(=O)CSC1=C(C#N)C(c2ccc3c(c2)OCO3)CC(=O)N1 (centres undefined)
  -0.8, 0.26
(78) COc1ccc2c(c1)C(=NNC(=O)c1ccccn1)c1cc(OC)ccc1-2
  0.96, 0.54
(79) O=C(NC1CCN(C(=O)Nc2cccc(F)c2)CC1)c1ccco1
  -1.85, 1.42
(80) O=C(CCCCCn1nnc2ccccc2c1=O)N[C@H](C(=O)O)c1ccccc1
  0.51, 0.02

Each structure is followed by: KCNQ2 enhance baseline, KCNQ2 enhance
(81) COCCN1CN=C(Nc2nc3ccccc3s2)NC1
  0.66, 0.54
(82) Cc1ccc(NC(=O)CCC(=O)Nc2nnc(C3CCCCC3)s2)cc1
  -0.5, 0.24
(83) COc1cccc(-c2nc3ccccc3c(=O)n2NC(=O)c2cccnc2Cl)c1
  -0.46, 0.41
(84) COc1ccccc1C1N(c2ccc(F)cc2)C(=O)C2CCCN21 (centres undefined)
  1.56, 0.72
(85) CC1=C(C(N)=O)C(c2cccc(O)c2)n2nc(CCCO)nc2N1 (centres undefined)
  -0.4, 0.58
(86) CC(C)Cc1nc2oc3c(NCCCN4CCOCC4)ncnc3c2c2c1CCC2
  -0.01, 1.46
(87) O=C(C1CCCCN1S(=O)(=O)c1ccccc1)N1CCN(Cc2ccccc2)CC1 (centres undefined)
  0.02, 0.97
(88) COc1ccc(CN(C)CC(O)COc2ccc(-c3ccccc3)cc2)cc1OC (centres undefined)
  0.7, 0.56
(89) Cc1ccc(CCNC(=O)C2CCN(S(=O)(=O)N3CCCC3)CC2)cc1
  -0.49, 1.01
(90) Cc1nn(CC(=O)Nc2c(C)n(C)n(-c3ccccc3)c2=O)c(C)c1[N+](=O)[O-]
  -0.09, 0.11
(91) CC(C)CN(C(=O)c1ccc(-n2cncn2)c([N+](=O)[O-])c1)C1CCS(=O)(=O)C1 (centres undefined)
  -0.98, 0.22
(92) Cc1ccc(-c2nn3cnnc3c3ccccc23)cc1
  -0.99, 0.1
(93) Cc1ccc(C(=O)OCC(=O)N(CC(C)C)c2c(N)n(Cc3ccccc3)c(=O)[nH]c2=O)cc1[N+](=O)[O-]
  0.24, 0.78
(94) Cc1cc(Nc2cccc(C)c2C)n2ncnc2n1
  -2.13, 1.07
(95) COc1ccc(-c2nnc(SCC(=O)Nc3ccc4c(c3)OCCO4)n2N)cc1OC
  -1.44, 1.67
(96) CCn1nc(C(=O)NNC(=O)CCOc2cc(C)ccc2C)c2ccccc2c1=O
  -0.01, 1.69
(97) Cc1cccc(NS(=O)(=O)c2ccc3[nH]c(=O)cc(C(=O)OC(C)C(=O)Nc4ccc([N+](=O)[O-])cc4)c3c2)c1 (centres undefined)
  1.77, 0.61
(98) COc1ccc(/C=C/C(=O)Nc2cc(C)nn2-c2nc3ccccc3n2Cc2cccc([N+](=O)[O-])c2)cc1
  -1.12, 0.95
(99) CS(=O)(=O)c1ccccc1C(=O)Nc1ccc(-c2nc3ccccc3o2)cc1
  1.28, 0.09
(100) CC(=O)N=c1sc2cc(C)ccc2n1C
  -3.62, 0.28

Each structure is followed by: KCNQ2 enhance baseline, KCNQ2 enhance
(101) Clc1ccc(OC2CCN(Cc3nc(CC4CC4)no3)CC2)cc1
  -1.72, 0.11
(102) Cc1nccc(-c2ccc(-n3cnc4ccccc43)cc2)n1
  0, 2.81
(103) CC(C)OC(=O)c1cccnc1SCC(=O)N(C)c1ccccc1
  1.42, 0.55
(104) Cc1ccc(CC(=O)OCC(=O)NC2CCCC(C)C2C)cc1C (centres undefined)
  -0.05, 0.03
(105) CC(=O)c1c(C)[nH]c(C(=O)OCC(=O)NCCc2ccc(F)cc2)c1C
  -0.37, 2.01
(106) CCCc1[nH]nc2c1C(Cc1ccccc1)C(C#N)=C(N)O2 (centres undefined)
  -2.37, 0.06
(107) Cn1cccc1C(C#N)(CC#N)c1cccc(F)c1C#N (centres undefined)
  0.15, 2.08
(108) CN(Cc1cccc([N+](=O)[O-])c1)Cc1cccc2ccccc12
  -0.53, 0.62
(109) Cc1ccc(OC(=O)c2sc(Cl)nc2C)cc1C
  -0.4, 0.77
